Source: PubChem BioAssay
RecA intein inh: Mtb RecA intein splicing inhibition; P9WHJ3; cell-free RecA intein splicing, fluorescence; inhibition, %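 (about 9 µM by stock and volumes)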; 290,000 compounds, 0.75% hits; AID 2221; in the data active = inhibition above about 30%; inconclusive = no clear call, values can overlap the other calls;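 also: 0% = vehicle wells and 100% = reference inhibitor control wells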
Target sequence (P9WHJ3 whole entry, looked up): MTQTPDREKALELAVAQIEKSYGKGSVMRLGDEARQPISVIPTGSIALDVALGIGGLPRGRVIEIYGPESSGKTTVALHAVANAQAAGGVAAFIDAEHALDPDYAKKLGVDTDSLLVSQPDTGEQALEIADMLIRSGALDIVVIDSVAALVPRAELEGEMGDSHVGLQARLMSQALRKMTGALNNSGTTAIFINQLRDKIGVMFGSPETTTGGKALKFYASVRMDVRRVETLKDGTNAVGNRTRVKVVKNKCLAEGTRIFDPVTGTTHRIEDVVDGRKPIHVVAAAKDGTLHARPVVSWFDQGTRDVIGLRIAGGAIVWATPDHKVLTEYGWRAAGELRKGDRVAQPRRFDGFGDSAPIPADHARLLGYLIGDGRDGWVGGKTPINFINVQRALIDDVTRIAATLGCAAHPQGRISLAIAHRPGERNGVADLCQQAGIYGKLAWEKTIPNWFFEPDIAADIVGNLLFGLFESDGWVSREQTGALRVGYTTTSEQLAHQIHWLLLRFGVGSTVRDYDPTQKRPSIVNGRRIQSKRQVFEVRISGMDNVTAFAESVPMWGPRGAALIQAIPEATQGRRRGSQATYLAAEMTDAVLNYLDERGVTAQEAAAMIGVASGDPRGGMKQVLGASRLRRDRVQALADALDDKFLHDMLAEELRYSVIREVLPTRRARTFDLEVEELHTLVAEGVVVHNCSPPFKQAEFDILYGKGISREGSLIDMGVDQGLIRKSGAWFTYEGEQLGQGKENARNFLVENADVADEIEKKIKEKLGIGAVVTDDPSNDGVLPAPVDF
Arbovirus anti: arbovirus infection inhibition. 200,000 compounds, 0.37% hits. arbovirus infection cell-based antiviral screen. AID 1251. inhibition, % at 10 µM;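 active = inhibition from about 30%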;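 also: bluetongue infection of BSR cells; cell survival read as ATP light after 72 h; 0% = infected wells without compound and 100% = uninfected wells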
Mtb growth: M. tuberculosis H37Rv growth inhibitors, H37Rv strain (AID 1626) | M. tuberculosis H37Rv growth inhibition; higher % means a stronger effect | one-dose inhibition, % at 10 µM; IC50 in µM for titrated hits | 220,000 compounds, 0.95% hits;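 active = confirmed in a dose series; inconclusive = inhibition above 80% but not taken into the dose series; inactive = below 80% or under 30% at every dose of the series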;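 also: bacteria incubated seven days before Alamar blue readout; 0% = bacteria only wells and 100% = bacteria with antibiotic wells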
Mtb betalactam: beta-lactam sensitization of Mtb H37Rv; M. tuberculosis H37Rv growth with meropenem, percent inhibition; hits of this screen are not shown here; inhibition, % at 25 µM; 330,000 compounds, 0.27% hits;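 active = about 74% or more and at least 40 points above the plate without the antibiotic, then above 30% in a dose series; inconclusive = first-round hits that could not be retested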;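 also: growth measured after seven days incubation then overnight dye step; 0% = bacteria only wells and 100% = bacteria with antibiotic; twin plates without the antibiotic show which effects depend on it; some results filed as inactive read as strong as hits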
YopH PTP inh: YopH (Yersinia) phosphatase inhibition | fluorescence Ex485/Em525 | AID 898 | inhibition, %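 (about 10 µM by stock and volumes)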 | 140,000 compounds, 0.16% hits;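 active = inhibition of 50% or more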;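 also: controls were vehicle for no effect and minimum signal wells for full effect; inactives centre near -20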
Arbovirus anti repeat: recorded beside Arbovirus anti, whose call it bears; inhibition, %; measured here: 10K subset replicate screen; many hits read low in the repeat;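 first of two repeat runs on a subset; 0% = infected and 100% = uninfected wells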
Numbers without * were called inactive; ? = inconclusive; nt = not tested or not shown.

SMILES	RecA intein inh	Arbovirus anti	Mtb growth	Mtb betalactam	YopH PTP inh	others
O=C(CNC(=O)C12CC3CC(CC(C3)C1)C2)OCc1cc(=O)n2cc(Br)ccc2n1	0.8	3	5%	12	nt
O=c1c2c(nc3nc(NCc4ccc(Cl)cc4)[nH]n13)CCC2	-1.9	14	?	-8	nt
CCOC(=O)N1CCN(C(=O)c2ccccc2NC(=O)c2ccccc2Cl)CC1	-2.0	nt	nt	-8	nt
CCOC(=O)c1ccc(-c2ccc3[nH]c4ccccc4c(=O)c3c2)cc1F	-6.1	nt	nt	9	nt
CCOCCCNC(=O)C1CCN(S(=O)(=O)N2CCCCC2)CC1	0.5	4	nt	-3	-24
COC(=O)c1sc2nc(SCc3ccccc3C)n(N)c(=O)c2c1C	-0.2	-2	-2%	?	-18
O=c1[nH]c(C2CCN(S(=O)(=O)c3ccccc3C(F)(F)F)CC2)nc2c1nnn2Cc1cccc(F)c1	0.8	nt	nt	7	nt
CCOC(=O)c1c(NC(=O)C2C3C=CC(C3)C2C(=O)O)sc2c1CCC(CC)C2 (configuration not stated)	3.3	-27	5%	-6	-2
Cc1ccc(S(=O)(=O)N2CCN(C(=O)c3ccccc3)C2C(C)C)cc1 (configuration not stated)	1.3	1	1%	1	-18
O=C1CC(Nc2cc(=O)[nH]c(=O)[nH]2)C(=O)N1c1ccccc1Cl (configuration not stated)	nt	nt	-4%	-2	nt
COc1ccc(N2CCN(C(=O)c3ccc4c(Cl)c5c(nc4c3)CCCC5)CC2)cc1	-0.5	1	66%	8	-15
CCOC(=O)c1sc(NC(=O)CCCn2nc([N+](=O)[O-])c(Cl)c2C)c(C(=O)OCC)c1C	7.0	-9	3%	4	-6
O=C1CSC(c2cn(-c3ccccc3)nc2-c2ccccc2)N1Cc1ccco1 (configuration not stated)	nt	-2	11%	13	-27
CCOC(=O)C1CCN(C(=O)Cn2nc(C)c3c(C)n(-c4ccccc4)nc3c2=O)CC1	-1.6	nt	nt	-6	nt
COc1ccc(OC)c(-c2nnc(SCC(=O)N3CCCc4ccccc43)o2)c1	-1.2	-5	-8%	-2	11
CCC(C)C(=O)Nc1cccc(SC)c1 (configuration not stated)	0.2	-5	1%	-14	nt
O=C(N/N=C/c1cccc2ccccc12)c1cccnc1	1.0	nt	nt	3	nt
CN(C)c1ncc(C(=O)O)cn1	-1.4	-1	-7%	-1	-25
COc1ccc(/C=C(/NC(=O)c2ccc(OC)cc2)C(=O)NCCc2c[nH]c3ccccc23)cc1	1.8	-1	23%	6	-8
CCN1CCN(c2ccc(NC(=O)c3ccc(Cl)c(N4CCCC4=O)c3)cc2)CC1	4.8	nt	nt	-2	nt
Cc1ccc(-c2nc(NC(=O)c3cc(C(C)(C)C)nn3C)sc2C)cc1Cl	2.2	nt	78%	97	nt
O=C(CN(C(=O)c1csnn1)c1cccc(Cl)c1)NC1CCCCC1	-3.3	nt	nt	-3	nt
CC(/C=C/C=C/c1ccccc1)=N/NC(=O)C(O)c1ccccc1 (configuration not stated)	0.1	nt	-2%	28	nt
CCOc1ncccc1C(=O)OCC(=O)N(CC(C)C)c1c(N)n(Cc2ccccc2)c(=O)[nH]c1=O	-6.0	nt	nt	-6	nt
CS(=O)(=O)N(CC(=O)N1CCCC1)c1cc(C(F)(F)F)ccc1Cl	-2.1	2	3%	2	nt
COC(=O)c1nn(-c2ccccc2)c(Sc2ccc(C)cc2)c1/C=N/O	nt	7	1%	nt	-31
O=c1c2ccccc2nc(-c2ccccc2)n1-c1ccccc1	-4.1	nt	2%	0	nt
COc1cc2ncc(C(=O)c3ccccc3)c(N3CCN(Cc4ccccc4)CC3)c2cc1OC	14	nt	76%	92	nt
CC1(C)C2CCC1(CS(=O)(=O)N1CCCc3ccccc31)C(=O)C2 (configuration not stated)	-0.5	9	-5%	-5	37
OC(C#CCN1CCCC1)(c1ccccc1)c1cccnc1 (configuration not stated)	0.3	nt	0%	-6	nt
COC(=O)c1ccc(NC(=O)CCN2C(=O)C3C4CCC(C4)C3C2=O)cc1 (configuration not stated)	2.3	nt	nt	?	nt
O=C(C1CCN(Cc2ccc(F)cc2)CC1)N(CCc1ccccc1)Cc1ccccc1	-4.1	-6	-3%	6	-1
O=C(CC1C(=O)NCCN1CC1CCCCC1)NCc1ccc(F)cc1 (configuration not stated)	0.6	-3	-9%	3	nt
COC(=O)c1sccc1NC(=O)c1ccc(OC)c([N+](=O)[O-])c1	-4.6	-6	-3%	-5	nt
CCc1sc(NC(=O)CN2CCOCC2)nc1-c1ccccc1	0.4	2	-3%	1	-13
CC(C)(C)C1CCC(N2CCN(c3ccccc3)CC2)CC1 (configuration not stated)	0.8	nt	nt	10	nt
CC(=O)N[C@@H](C)C(=O)N1CCN(S(=O)(=O)c2ccc(Cl)cc2)CC1	1.3	1	6%	-6	nt
Nc1nnnn1CC(=O)N/N=C/c1cc([N+](=O)[O-])ccc1Cl	0.0	5	0%	0	nt
NC(=O)C1CCN(C(=O)c2cc(S(=O)(=O)N3CCOCC3)c(Cl)cc2Cl)CC1	-0.9	2	-11%	-2	-35
COc1ccc(S(=O)(=O)N2CCOC23CCN(S(=O)(=O)c2ccccc2)CC3)cc1	1.9	nt	nt	4	nt
O=C(O)CC/C(=N\NC(=O)c1ccc(F)cc1)c1ccc(Br)cc1	-0.8	3	4%	0	nt
CCCC(=O)c1ccc(N2CCOCC2)c(F)c1	-3.0	4	3%	2	-22	Arbovirus anti repeat=3
Cc1ccc(CC2CC(=O)N(CC(=O)O)C2=O)cc1 (configuration not stated)	-0.7	2	4%	-2	30
CCn1c(SCC(=O)Nc2ccc(N3CCOCC3)c(Cl)c2)nnc1-c1ccc(N)cc1	2.3	-8	6%	9	-18
O=C(NC1CC2CCCC(C1)N2C(=S)NCCc1ccccc1)C1CC1 (configuration not stated)	-0.5	-1	-6%	-12	nt
O=C(NCCNC(=O)c1ccc([N+](=O)[O-])cc1)c1ccncc1	4.6	3	-6%	-1	nt
Cc1nn(-c2ccccc2)c(Cl)c1C(=O)N(C)c1nc(-c2ccc(F)cc2)cs1	0.3	-18	2%	2	-20
Cc1ccc(C(=O)Nc2ncccc2S(=O)(=O)c2ccccc2)cc1	1.5	nt	nt	-3	nt

Fetched by structure from the entries so far:
SMILES	RecA intein inh	Arbovirus anti	Mtb growth	Mtb betalactam	YopH PTP inh	others
CCn1c(SCC(=O)Nc2ccc(N3CCOCC3)c(Cl)c2)nnc1-c1ccc(N)cc1	2.3	-8	6%	9	-18
Cc1ccc(C(=O)Nc2ncccc2S(=O)(=O)c2ccccc2)cc1	1.5	nt	nt	-3	nt
CCCC(=O)c1ccc(N2CCOCC2)c(F)c1	-3.0	4	3%	2	-22	Arbovirus anti repeat=3
O=C(NC1CC2CCCC(C1)N2C(=S)NCCc1ccccc1)C1CC1 (configuration not stated)	-0.5	-1	-6%	-12	nt
Cc1ccc(CC2CC(=O)N(CC(=O)O)C2=O)cc1 (configuration not stated)	-0.7	2	4%	-2	30

New compounds follow.
SMILES	RecA intein inh	Arbovirus anti	Mtb growth	Mtb betalactam	YopH PTP inh	others
CC(C)(C)c1cc(NC(=O)Nc2ccc(Br)cc2Cl)no1	nt	5	8%	11	nt
CCn1c(=O)c(C(=O)Nc2ccccc2)c(O)c2ccccc21	0.8	nt	nt	12	nt
CC1=CC(=C(C#N)C#N)C=C(C)N1Cc1ccccc1	-3.1	10	-7%	-10	nt
COc1cccc(-c2n[nH]c(=S)n2Cc2ccco2)c1	2.1	nt	-7%	-2	nt
CCOC(=O)c1cccc(NC(=O)CCc2ccccc2)c1	2.8	-7	?	52	nt
c1ccc2c(OCCCCN3CCCC3)cccc2c1	0.5	nt	nt	-4	nt
CCOC(=O)c1c(C)[nH]c(C)c1C=O	-2.1	4	-2%	-1	nt
CCN(Cc1ccccc1)C(=O)CSc1ncn[nH]1	-1.5	nt	nt	-2	nt
Clc1ccc(CSc2nncn2-c2ccc3c(c2)OCCO3)cc1	2.8	nt	-3%	7	nt
Nc1c(S(=O)(=O)c2ccccc2)nnn1-c1ccccc1	-2.3	-3	-1%	-13	-25
CC(O)(CS(=O)(=O)Cc1ccc(Cl)cc1)C(=O)Nc1cccc(C(F)(F)F)c1 (configuration not stated)	-0.6	-5	3%	-10	-13
Nn1c(SCC(=O)NCc2ccc3c(c2)OCO3)nnc1C1CC1	2.2	-4	-10%	-8	-24
CC1(C)c2[nH]c3ccccc3c2C[C@@H]2C(=O)N(c3ccc(F)cc3F)C(=O)N21	-18	nt	-2%	-6	nt
Cc1ccc(S(=O)(=O)N2CCC(=O)N(C(COC(=O)Nc3ccccc3)Cc3ccccc3)CC2)cc1 (configuration not stated)	4.7	-9	4%	-1	-34
Cc1cc(N2CCOCC2)nc(SCc2c(Cl)cccc2Cl)n1	5.0	12	13%	1	-32
Cn1c(SCC(=O)N2CCOCC2)nc2c(c1=O)SCC2	0.2	nt	nt	-4	nt
N#Cc1ccccc1NC(=O)CSc1nnc(-c2ccncc2)o1	1.4	3	7%	0	nt
COc1ncnc2sc(-c3ccccc3)cc12	5.5	-10	-5%	-1	-24
Cc1ccccc1Oc1nc2ccccn2c(=O)c1/C=C(\C#N)C(=O)Nc1c(C)n(C)n(-c2ccccc2)c1=O	-1.6	-13	-3%	-7	-16
COc1ccc(C(=O)N=C2SC3CS(=O)(=O)CC3N2c2ccc(N(C)C)cc2)cc1OC (configuration not stated)	-1.7	nt	nt	2	nt
COC(=O)CCSc1nc(N2CCOCC2)c2c(c1C#N)CC(C)(C)OC2	-0.8	nt	nt	-6	nt
O=C(NCc1cc([N+](=O)[O-])ccc1O)c1cccnc1Sc1ccc(Cl)cc1	0.1	nt	nt	-3	nt
CCCc1cc(C(N)=O)c(NC(C)=O)s1	-2.5	3	3%	-2	-66
O=C(Cn1nnc(-c2ccccc2)n1)N/N=C/c1ccco1	-0.1	1	7%	-7	nt
COc1cccc(C2C3=C(CCCC3=O)Nc3nc(-c4cc(OC)c(OC)c(OC)c4)nn32)c1 (configuration not stated)	-1.6	-4	0%	2	-55
CC1(OC(=O)C2CCCC2)C(=O)C=C2C=C(c3ccsc3)N(C(CO)CO)C=C2C1=O (configuration not stated)	-14	nt	-7%	1	nt
O=C(N/N=C/c1cc2c(cc1Cl)OCO2)c1ccncc1	-2.0	3	?	98	-24
Oc1ccccc1-c1nnc(-c2ccc(C(F)(F)F)cc2)o1	1.3	2	14%	96	-2
O=C(CSc1nnc(SCc2ccc(Cl)cc2)s1)N1CCOCC1	0.8	3	-2%	-5	-21
Cc1cc(N2CCOCC2)nc(-c2ccc([N+](=O)[O-])cc2)n1	-3.1	3	nt	4	-15
CC(=O)c1cccc(NC(=O)C2CCCN(S(=O)(=O)c3ccccc3)C2)c1 (configuration not stated)	1.3	2	-5%	-3	-122
O=C(COC(=O)/C=C/c1ccco1)Nc1cccc([N+](=O)[O-])c1	1.8	5	11%	0	-14
Cc1cc(C)n(-c2ccc(C(=O)NC(C)C)cc2)n1	-2.2	-4	-2%	-8	-37
CC(=O)N/C(=C\c1ccccc1)C(=O)NC(C)C(=O)O (configuration not stated)	-3.3	5	5%	-9	nt
CCCCN(Cc1ccco1)S(=O)(=O)c1c[nH]c(C(=O)OC)c1	1.5	nt	nt	6	nt
CCCCC(=O)Nc1ccc(N2CCN(c3ccc(F)cc3)CC2)cc1	-0.8	nt	nt	-6	nt
CN(C/C=C/c1ccccc1)C1CCCCC1	0.0	-6	0%	6	nt
Oc1ccc(F)cc1-c1cc(-c2ccc3c(c2)OCCO3)n[nH]1	2.7	32*	9%	43	14
Clc1ccc(Cn2c(-c3cccnc3Cl)nc3ccccc32)cc1	7.1	-11	5%	-2	-44
Clc1ccc(-c2csc(=Nc3cccnc3)n2CCCn2ccnc2)cc1Cl	4.3	-20	61%	85	-5
CCOC(=O)c1cnc(SCc2nc(N)nc(Nc3ccccc3)n2)nc1N	0.2	5	5%	-5	-32
CCN1C(=O)CC(c2ccc(OC(C)C)cc2)C1=O (configuration not stated)	0.1	nt	nt	-8	nt
O=C(c1ccccc1)N1CCN(C(=O)c2nn3c(C(F)(F)F)cc(-c4ccco4)nc3c2Cl)CC1	-1.2	nt	nt	-2	nt
O=C(Nc1n[nH]c(C2CCCCC2)n1)C1CCCCC1	-0.2	-3	1%	-4	-11
O=C(NCC(c1ccco1)N1CCN(c2ccccc2F)CC1)OCc1ccccc1 (configuration not stated)	8.1	-11	8%	10	-11
CCN(CC)CCCn1c2c(c(SCC(=O)Nc3nc(C)cs3)nc1=O)CCC2	1.5	nt	nt	-14	nt
CCCCCNC(=O)c1cccnc1SCC(=O)Nc1ccccc1OC	0.2	29	6%	-6	-5
Cn1c(N)c(C(=O)COC(=O)CCC2CCCCC2)c(=O)n(C)c1=O	-2.3	-3	-4%	-8	nt

These rows are one share of the data, so the mix of outcomes need not match the whole.
